Bioassay records as filed in PubChem BioAssay.
PrP 5UTR inh: inhibition of PrP 5' UTR reporter expression | cell-based PrP 5' UTR mRNA reporter, plate reader | inhibition, % (test concentration not listed) | actives 0.35% (n = 340,000) | AID 488862, 2010;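 active means every replicate at 50% or more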;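 further: 0 = median of the neutral control wells; tested in H4 reporter cells; numbers are from one replicate; inactives centre near -14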
Mtb hypoxia rep: PubChem AID 1159583; M. tuberculosis hypoxia-regulated fluorescent reporter, fluorescence; actives 0.1% (n = 300,000); fluorescence inhibition, % (no concentration beside the values);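 active means 35 to 45% if threefold the growth effect, above 45% if 1.5-fold the growth effect; inactive means the rest, general growth blockers included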;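 further: wells of about 50 µL received 100 nL stock; 0% = vehicle wells and 100% = reference inhibitor wells; whole bacteria with a GFP reporter of the hypoxia response; strong numbers were not always called active; many hits fall short of the cut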
BJeLR viability: MLPCN primary cell-based screen for lethality selective to Ras in HRASV12 cells; BJeLR (HRASV12) viability, CellTiter-Glo ATP luminescence, 48 h; reference of the scale not given here; actives 0.17% (n = 300,000); inhibition, % (no concentration beside the values);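 active means replicate mean above 50%; inconclusive means above 50% but judged a plate artefact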;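 further: 50 nL library stock added to about 25 µL; numbers are from one replicate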
Bead autofluor: flagged as autofluorescent in microsphere protease counterscreen; fluorescence intensity (test concentration not listed); actives 3.1% (n = 360,000); compound autofluorescence counterscreen, microsphere flow cytometry; active compounds read high;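 active means at least 3 SD above the mean of all compounds, about 16000 in these data; inconclusive means too few beads counted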;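 further: 100 nL of 1 mM stock went into each well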
ugtP null kill: growth inhibition of ugtP-null S. aureus, primary screen, RN4220 ugtP deletion, OD600; 16 h; some inactives read as strong as hits; growth inhibition, % (test concentration not listed); actives 0.54% (n = 330,000); AID 1259309, 2017;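 active means z-score under -3 and OD600 up to 0.15 on both plates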;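 further: plate controls were untreated wells for no effect and antibiotic for full effect; wells of about 80 µL received 100 nL stock; the first replicate is given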
Sa RN4220 lethal: growth inhibition of S. aureus RN4220, primary screen, OD600; AID 1259311, 2017; inhibition, % (test concentration not listed); 16 h; actives 0.33% (n = 330,000);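 active means z-score of -3 or lower and OD600 up to 0.18 on both plates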;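 further: plate controls were untreated cells for no effect and reference antibiotic for full effect; stock transfer was 100 nL into about 80 µL; one replicate is shown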
Mtb hypoxia rep growth: second read-out of Mtb hypoxia rep, no call of its own (marks repeat the call); growth inhibition, %; measured here: M. tuberculosis growth (absorbance);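 0% = vehicle and 100% = reference antibiotic; read after six days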
An asterisk follows results filed as active; ? = inconclusive; · = no result given.

no.	molecule	PrP 5UTR inh	Mtb hypoxia rep	Mtb hypoxia rep growth	BJeLR viability
1	O=C(O)C1C(c2ccccc2)c2ccccc2C(O)C1CO (configuration not stated)	-3	1	8	·
2	CC(C)Oc1ccc(S(=O)(=O)N2CCCCC2)cc1NC(=O)C1CCCC1	·	8	-1	·
3	CCC/C=N/NC(=O)c1ccccc1O	-15	·	·	3
4	CCOc1ccc(C(C(=O)NCC2CCCO2)N(CCc2cccc(C)c2)C(=O)c2snc(C(N)=O)c2N)cc1 (configuration not stated)	-4	1	7	-5
5	COc1ccc(Nc2cccccc2=O)cc1	-24	8	9	-2
6	NC(=O)c1cc(NC(=O)CCc2nc3ccccc3s2)cc(C(N)=O)c1	0	0	12	-8
7	CC(C)N(C(=O)CSc1ccc(S(=O)(=O)N2CCCCC2)cn1)C(C)C	-8	-4	-7	·
8	O=C(COC(=O)/C=C/c1ccc(S(=O)(=O)N2CCc3ccccc32)cc1)NC1CCS(=O)(=O)C1 (configuration not stated)	-10	1	14	5

no.	Bead autofluor	ugtP null kill	Sa RN4220 lethal
1	3724	-5	0.3
2	?	6	2.1
3	4836	·	·
4	6090	10	2.5
5	6217	-4	10.0
6	4273	8	1.7
7	4992	1	4.3
8	4782	-2	3.8

no.	molecule	PrP 5UTR inh	Mtb hypoxia rep	Mtb hypoxia rep growth	BJeLR viability
9	CCCSc1nnc(-c2cnn(-c3ccccc3)c2-n2cccc2)n1C	-14	·	·	6
10	O=C(O)c1ccc(NN=Cc2ccncc2)cc1	·	3	6	·
11	Cc1ccc(C(=O)NN=C/C=C/c2ccccc2[N+](=O)[O-])cn1	·	-3	-1	·
12	NS(=O)(=O)c1ccc(N2N=C(c3ccccc3)CC2c2cccc(F)c2)cc1 (configuration not stated)	-21	-2	-4	-10
13	O=C1/C(=C\c2ccc(C(F)(F)F)cc2)CSc2sccc21	-17	15	3	-10
14	Cc1ccc(S(=O)(=O)N2CCC(NC(=O)c3cccc(C)c3)CC2)cc1	-21	15	6	-4
15	O=C(Cc1cccc2ccccc12)NCCC1=CCCCC1	-42	20	5	-4
16	COc1cc(C2SCC(=O)N2c2nnc(C34CC5CC(CC(C5)C3)C4)s2)cc(OC)c1OC (configuration not stated)	-13	5	7	-3

no.	Bead autofluor	ugtP null kill	Sa RN4220 lethal
9	2624	-8	-3.4
10	·	10	3.1
11	·	7	-1.0
12	9249	-26	11
13	3177	40	-7.5
14	3922	1	1.1
15	2126	-5	8.4
16	5770	-4	-0.1

no.	molecule	PrP 5UTR inh	Mtb hypoxia rep	Mtb hypoxia rep growth	BJeLR viability
17	Fc1ccc(/C=N/Nc2nc(-c3cccnc3)nc3ccccc23)cc1	-7	·	·	2
18	CN(C)C(CNC(=O)c1ccc2ccccc2c1)c1ccco1 (configuration not stated)	-31	-10	2	0
19	O=C(NN=Cc1cc2ccccc2nc1Cl)[C@H]1C[C@@H]1c1ccccc1	·	2	-1	·
20	CN(Cc1ccc(Cl)cc1)C(=O)CNC(=O)C12CC3CC(CC(C3)C1)C2	-8	6	2	·
21	c1cc(CNC2C3CC4CC(C3)CC2C4)ccn1 (configuration not stated)	-59	8	7	6
22	CC(c1nnc(SCC(=O)Nc2cccnc2Cl)n1Cc1ccccc1)N(C)C (configuration not stated)	6	10	3	0
23	CCN1C(=O)[C@H]2[C@H]3CN=C(SC)N3[C@@](CC)(C(=O)OC)[C@H]2C1=O	66*	-2	5	·
24	O=C(NCc1ccco1)c1cc([N+](=O)[O-])cc([N+](=O)[O-])c1	17	·	·	3

no.	Bead autofluor	ugtP null kill	Sa RN4220 lethal
17	4579	·	·
18	4358	6	4.7
19	·	26	2.4
20	8627	-1	-0.1
21	4184	4	10
22	2052	5	2.1
23	3798	-1	-0.4
24	2260	1	2.6

no.	molecule	PrP 5UTR inh	Mtb hypoxia rep	Mtb hypoxia rep growth	BJeLR viability
25	CCN1C(=O)C2(C(C(=O)c3cc4ccccc4o3)=C(O)C(=O)N2CCCN(C)C)c2ccccc21 (configuration not stated)	·	2	-5	3
26	Cc1ccc(C)n1C(CC(=O)O)c1ccc(C#N)cc1 (configuration not stated)	-24	0	3	1
27	CCOc1cc(/C=N/NC(=O)COc2ccccc2C)ccc1OC(=O)c1cccs1	-15	·	·	14
28	CCOCCCNC(=O)c1cc(-c2cccnc2)nc2ccc(S(=O)(=O)N3CCC(C)CC3)cc12	0	11	12	-10
29	CC1CCC(N2CCN(c3ccc([N+](=O)[O-])cc3)CC2)CC1 (configuration not stated)	-34	2	5	-2
30	Cc1c(S(=O)(=O)NCc2ccccc2)c(=O)n(C)c(=O)n1C	-13	2	1	-3
31	O=C(COC(=O)c1cccc(S(=O)(=O)NCc2ccccc2)c1)c1ccccc1	-19	-3	5	-8
32	COc1ccc(CCN2CNc3c(c(=O)n(C)c(=O)n3C)C2)cc1	-4	3	6	4

no.	Bead autofluor	ugtP null kill	Sa RN4220 lethal
25	·	2	-0.1
26	4545	-1	4.0
27	7621	·	·
28	4823	4	2.7
29	3644	-2	-3.4
30	4272	8	1.7
31	10273	-6	13
32	3392	7	-0.8

no.	molecule	PrP 5UTR inh	Mtb hypoxia rep	Mtb hypoxia rep growth	BJeLR viability
33	COc1ccc(C=NNC(=O)c2ccc(CSc3nc(C)cc(C)n3)cc2)cc1O	·	-9	6	·
34	COc1ccc(-c2ccc(NS(=O)(=O)c3ccc([N+](=O)[O-])cc3)cc2)nn1	13	3	3	9
35	COc1cc(/C=N/NC(=O)CNC(=O)c2ccncc2)ccc1OC(C)=O	-16	·	·	-3
36	C[C@H]([C@@H](N)C(=O)N[C@@H](C(=O)O)[C@@H]1O[C@H](n2ccc(=O)[nH]c2=O)[C@@H](O)[C@H]1O)[C@@H](O)c1ccc(O)cn1	-15	·	·	-4
37	Cc1cc(NC(=O)c2ccccc2)n(C)n1	-26	-2	3	0
38	Cc1onc(-c2ccccc2)c1C(=O)NC(=S)Nc1sc2c(c1C#N)CCCC2	-14	0	-4	4
39	COc1cc(C(=O)NCC(=O)N/N=C/c2ccc(-c3cccc([N+](=O)[O-])c3)o2)cc(OC)c1OC	-17	·	·	-12
40	Cn1c(=O)c2c(ncn2CC(=O)NC2CCCCC2)n(C)c1=O	-5	1	-1	-13

no.	Bead autofluor	ugtP null kill	Sa RN4220 lethal
33	·	-9	1.7
34	4422	-4	2.5
35	6487	·	·
36	5059	·	·
37	3503	1	1.7
38	2896	1	4.7
39	3662	·	·
40	4504	12	4.1

no.	molecule	PrP 5UTR inh	Mtb hypoxia rep	Mtb hypoxia rep growth	BJeLR viability
41	O=C(NN=Cc1ccc(Br)s1)c1cccc([N+](=O)[O-])c1	·	9	9	·
42	COc1cccc2c(=O)n(CC(=O)N3CCCc4ccccc43)ccc12	-32	5	2	9
43	O=c1oc2ccccc2c(N2CCCC2)c1[N+](=O)[O-]	-26	13	5	1
44	Cn1c(CNc2ccc(Br)cc2)nc2ccccc21	-50	·	·	6
45	CCC(CC)NC(=O)c1cc(OC)c(OC)c(OC)c1	4	-1	0	-8
46	Cc1ccc(-c2cc(-c3ccc(C)cc3)[n+](-c3ccc(C(=O)O)cc3)c(-c3ccc(C)cc3)c2)cc1	-14	10	20	-11
47	Cc1cc(Br)ccc1NC(=O)c1ccco1	-21	11	6	-7
48	COc1ccc(C(C(=O)NCC2CCCO2)N(Cc2cccs2)C(=O)c2snc(C(N)=O)c2N)cc1OC (configuration not stated)	5	·	·	10

no.	Bead autofluor	ugtP null kill	Sa RN4220 lethal
41	·	5	0.6
42	5333	-4	2.8
43	4114	5	4.1
44	4167	·	·
45	2401	-7	0.0
46	3500	-12	3.5
47	3802	6	0.7
48	3039	·	·

no.	molecule	PrP 5UTR inh	Mtb hypoxia rep	Mtb hypoxia rep growth	BJeLR viability
49	CCN(CC)C(=O)C1CCCN(c2ccc([N+](=O)[O-])cc2C=NNC(=O)c2cccc(Br)c2)C1 (configuration not stated)	·	5	15	·
50	O=[N+]([O-])c1cnc(N2CCCCC2)c([N+](=O)[O-])c1	-18	13	7	8
51	CC1Cc2ccccc2N1C(=O)CSc1nnc(CNc2ccccc2)o1 (configuration not stated)	-59	4	6	-22
52	CCOC(=O)c1cnc(SC)nc1Nc1cccc(F)c1	-2	0	11	5
53	O=C(c1ccco1)c1nnn(Cc2ccccc2)c1-c1ccccc1	-3	5	-6	1
54	CC1CN(C(=O)N(C)C)CCN1C(=O)N(C)C (configuration not stated)	-7	5	4	9
55	O=C(Nc1cc(=O)c2ccccc2o1)N1CCCCC1	-5	-6	1	·
56	CC(CC(=O)NCc1ccco1)=NNC(=O)Cc1ccc(Cl)cc1	·	8	5	·

no.	Bead autofluor	ugtP null kill	Sa RN4220 lethal
49	·	-22	-0.4
50	2490	5	5.4
51	10399	-4	0.9
52	11052	4	4.1
53	9079	3	0.9
54	2867	-4	3.8
55	15417	4	4.2
56	·	9	11

Part of the list above in another layout:
(43) O=c1oc2ccccc2c(N2CCCC2)c1[N+](=O)[O-]
(44) Cn1c(CNc2ccc(Br)cc2)nc2ccccc21
(45) CCC(CC)NC(=O)c1cc(OC)c(OC)c(OC)c1
(46) Cc1ccc(-c2cc(-c3ccc(C)cc3)[n+](-c3ccc(C(=O)O)cc3)c(-c3ccc(C)cc3)c2)cc1
(47) Cc1cc(Br)ccc1NC(=O)c1ccco1
(48) COc1ccc(C(C(=O)NCC2CCCO2)N(Cc2cccs2)C(=O)c2snc(C(N)=O)c2N)cc1OC (configuration not stated)
(49) CCN(CC)C(=O)C1CCCN(c2ccc([N+](=O)[O-])cc2C=NNC(=O)c2cccc(Br)c2)C1 (configuration not stated)
(50) O=[N+]([O-])c1cnc(N2CCCCC2)c([N+](=O)[O-])c1

Screen / compound no.	43	44	45	46	47	48	49	50
PrP 5UTR inh	-26	-50	4	-14	-21	5	·	-18
Mtb hypoxia rep	13	·	-1	10	11	·	5	13
Mtb hypoxia rep growth	5	·	0	20	6	·	15	7
BJeLR viability	1	6	-8	-11	-7	10	·	8
Bead autofluor	4114	4167	2401	3500	3802	3039	·	2490
ugtP null kill	5	·	-7	-12	6	·	-22	5
Sa RN4220 lethal	4.1	·	0.0	3.5	0.7	·	-0.4	5.4

(51) CC1Cc2ccccc2N1C(=O)CSc1nnc(CNc2ccccc2)o1 (configuration not stated)
(52) CCOC(=O)c1cnc(SC)nc1Nc1cccc(F)c1
(53) O=C(c1ccco1)c1nnn(Cc2ccccc2)c1-c1ccccc1
(54) CC1CN(C(=O)N(C)C)CCN1C(=O)N(C)C (configuration not stated)
(55) O=C(Nc1cc(=O)c2ccccc2o1)N1CCCCC1
(56) CC(CC(=O)NCc1ccco1)=NNC(=O)Cc1ccc(Cl)cc1

Screen / compound no.	51	52	53	54	55	56
PrP 5UTR inh	-59	-2	-3	-7	-5	·
Mtb hypoxia rep	4	0	5	5	-6	8
Mtb hypoxia rep growth	6	11	-6	4	1	5
BJeLR viability	-22	5	1	9	·	·
Bead autofluor	10399	11052	9079	2867	15417	·
ugtP null kill	-4	4	3	-4	4	9
Sa RN4220 lethal	0.9	4.1	0.9	3.8	4.2	11

(listing goes on)
no.	molecule	PrP 5UTR inh	Mtb hypoxia rep	Mtb hypoxia rep growth	BJeLR viability
57	CC(=O)N1CCN(CCN(CC2C(C)C=C(C)CC2C)C(C)=O)CC1 (configuration not stated)	-19	·	·	0
58	Cc1ccc(S(=O)(=O)CC(O)COc2ccccc2C#N)cc1 (configuration not stated)	-16	8	2	2
59	NS(=O)(=O)c1ccc(CCNC(=O)c2cccc3ccccc23)cc1	-7	-10	9	-14
60	COc1ccc(NC(=O)CSc2nnc(Cc3cccn3C)n2-c2ccc(C)cc2)cc1OC	-34	1	8	-1
61	COc1ccc(C=NNC(=O)C(=O)N2CCCCCC2)cc1[N+](=O)[O-]	·	4	10	·
62	C/C(=N\NC(=O)c1ccc(Cl)c(S(=O)(=O)Nc2ccccc2Cl)c1)c1ccncc1	-20	·	·	-4
63	C=CCN1C=C2C(=O)C(C)(OC(=O)c3cnc4ccccc4n3)C(=O)C=C2C=C1C=CCOC (configuration not stated)	·	3	-7	·
64	COc1ccc(-c2nn(-c3ccccc3)cc2C2CC(c3cccs3)=NN2C(=O)CCCC(=O)O)cc1 (configuration not stated)	-10	1	0	-26
65	O=C(CSc1cccc(C(F)(F)F)c1)Nc1ccc(Cl)cc1Cl	-18	4	5	2

no.	Bead autofluor	ugtP null kill	Sa RN4220 lethal
57	6434	7	1.3
58	3397	7	5.4
59	3972	0	1.2
60	11263	-8	18
61	·	1	0.5
62	7087	·	·
63	·	3	7.1
64	2325	-2	7.1
65	19968*	-18	8.9
